Compound activity deposited in PubChem by National Center for Advancing Translational Sciences (NCATS).
VDR inh = blocks the human vitamin D receptor | VDR-SRC2-3 peptide fluorescence polarization, 2 h | Potency, µM, inactives show max response, negative = inhibition, hits mostly inhibitors | 400,000 compounds, 0.93% hits | AID 504847; active means well fitted inhibition curve with a large enough effect; inconclusive means small, poorly fitted or top-dose-only effect, or another doubt; inactive means no such curve, though single readings can be large or run the other way; further: series mostly up to about 120 µM
Target sequence (P11473 whole entry, looked up): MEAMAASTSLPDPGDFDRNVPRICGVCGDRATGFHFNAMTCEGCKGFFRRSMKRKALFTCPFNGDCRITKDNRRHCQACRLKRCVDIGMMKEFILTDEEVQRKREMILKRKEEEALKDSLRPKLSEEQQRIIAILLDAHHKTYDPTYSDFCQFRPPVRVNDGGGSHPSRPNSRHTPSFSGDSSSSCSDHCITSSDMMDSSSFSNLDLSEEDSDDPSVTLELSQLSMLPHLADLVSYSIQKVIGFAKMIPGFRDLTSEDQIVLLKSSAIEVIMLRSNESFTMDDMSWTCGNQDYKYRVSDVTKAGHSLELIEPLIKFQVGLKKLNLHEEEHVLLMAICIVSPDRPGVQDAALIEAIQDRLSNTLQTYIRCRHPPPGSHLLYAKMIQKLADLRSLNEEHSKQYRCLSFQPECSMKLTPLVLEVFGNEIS
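Fluorescence polarization assay measuring small-molecule disruption of VDR binding to the coregulator peptide SRC2-3. Compounds were pin-transferred (23 nl) into the reagent mix and incubated 2 h at room temperature before reading.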
Starred values were filed as active, the others as inactive; u = inconclusive; & = joins results of further samples. On the % scale 0 is the no-effect control and ±100 the full control effect; potency means the concentration at half of the fitted maximal effect. A portion of the library (hit frequency here may not be typical).

Start of the listing, in advance, 2 compounds:
SMILES	VDR inh
CC(NC(=O)OC1CCCCC1)N1C(=O)C2C3C=CC(C3)C2C1=O (stereo not drawn)	27%
Cc1cc(C)n(C2CCCCC2OC(=O)CCc2ccccc2)n1 (stereo not drawn)	12%

Results, from the first entry:
SMILES	VDR inh
CC(NC(=O)OC1CCCCC1)N1C(=O)C2C3C=CC(C3)C2C1=O (stereo not drawn)	27%
Cc1cc(C)n(C2CCCCC2OC(=O)CCc2ccccc2)n1 (stereo not drawn)	12%
CCOC(=O)C1CCCN(C(=O)COC(=O)C2=COCCO2)C1 (stereo not drawn)	-8%
CN(C)S(=O)(=O)c1ccc(C(=O)Nc2ccnn2C2CCCCC2)cc1	-13%
CN(C(=O)c1ccc2c(c1)S(=O)(=O)N=C1CCCCCN12)c1ccccc1	13%
CCN(CC(=O)Nc1ccccc1OC)C(=O)c1ccc(NC(=O)c2cccs2)cc1	-19%
C[C@H](CO)N1C[C@H](C)[C@@H](CN(C)C(=O)Nc2ccccc2)Oc2ccc(NC(=O)Cn3cnnn3)cc2C1=O	4%
COc1ccc(CCNC(=O)CCCOc2ccc(C)cc2)cc1OC	50µM*
O=C(O)Cc1ccc(O)cc1	15%
c1cnc(N2CCN(Cc3ccc4c(c3)OCO4)CC2)cn1	6%
CCOc1cc(CN2CCCCCC2)ccc1OC	-10%
O=C1CCCC(O)=C1N=Nc1ccc2ncsc2c1	-8%
CCCC(=O)NC(c1ccco1)c1cc([N+](=O)[O-])c2cccnc2c1O (stereo not drawn)	2%
Cc1ccccc1NC(=S)NCCc1c[nH]c2ccccc12	9%
CCNc1ncc2ncc(=O)n(CCc3ccccc3)c2n1	-21%
NC(=O)c1nccc2ccccc12	-8%
O=C(Cn1c(=O)n(Cc2nc(-c3ccccc3)no2)c(=O)c2cc3c(cc21)OCO3)Nc1cccc(C(F)(F)F)c1	21%
Cc1ccnc(NC(=O)c2cccc(NC(=O)c3ccc(Cl)c(Cl)c3)c2)c1	4%
CO/N=C/C(=N\Nc1ccc(OC)cc1)C(=O)c1ccc(OC)cc1	-10%
Cc1noc(C(=O)Nc2ccccc2C(F)(F)F)c1Cl	-16%

Records listed above marked active in VDR inh:
SMILES	VDR inh
COc1ccc(CCNC(=O)CCCOc2ccc(C)cc2)cc1OC	50µM*

(more compounds)
SMILES	VDR inh
O=C(NCc1cccs1)c1nc(-c2cccs2)no1	-10%
CCCc1cc(=O)oc2cc(OCC(=O)NC3CCN(Cc4ccccc4)CC3)ccc12	-9%
CC(=O)N1CCN(CC(O)COc2ccc(Br)cc2)CC1 (stereo not drawn)	-2%
CCS(=O)(=O)c1ncc(N(Cc2ccco2)Cc2ccccc2F)c(C(=O)Nc2cccc(Cl)c2)n1	14%
COCCNC(=O)c1sc2ncn(CC(=O)N3CCCCC3)c(=O)c2c1C	-23%
CC(=O)Nc1ccc(NC(=O)C2Cc3ccccc3N2C(=O)c2ccccc2)cc1 (stereo not drawn)	2%
O=c1c(C(c2ccc(F)cc2)c2c(O)nc3n(c2=O)CCCS3)c(O)nc2n1CCCS2	-25%
COc1ccccc1-c1ccc2ncnc(N3CCOCC3)c2c1	u
CSc1nnc2c3ccccc3n(Cc3ccccc3)c2n1	16%
Cc1ccccc1OCCCN1CCOCC1	5%
Cc1cc2ccc(C)c(C)c2nc1SCC(=O)c1cccs1	9%
CCOC(=O)c1cnc(SCC(=O)OCC(=O)NC2CCS(=O)(=O)C2)nc1N (stereo not drawn)	12%
O=C(CCN1C(=O)/C(=C\c2cccc(Br)c2)SC1=S)N1CCOCC1	4%
CCCC(=O)Nc1ccc(Cl)c(NC(=O)c2ccc([N+](=O)[O-])cc2Cl)c1	4%
Cc1ccc(C)n1CCN1CCN(CC(=O)Nc2ccc(S(N)(=O)=O)cc2)CC1	-1%
CCCC(=O)Nc1ccc(Cl)c(NC(=O)c2cccnc2)c1	-3%
COc1cc(/C=C/C(=O)N[C@@H](Cc2c[nH]c3ccccc23)C(=O)O)ccc1O	-12%
COc1cc(OC)cc(-c2nc(-c3ccccc3)no2)c1	5%
O=C(N/N=C/c1ccccc1C(=O)O)c1cc(-c2ccc3c4c(cccc24)CC3)n[nH]1	-9%
O=C1C=CC2=C3c4cc(O)c(O)cc4CC3(O)COC2=C1O (stereo not drawn)	u
CCCCOC(=O)c1ccc(N/C(=N\S(=O)(=O)c2ccccc2)c2ccccc2)cc1	-2%
COc1ccc(C2=NS(=O)(=O)N(C)C(C(=O)NCc3ccc(F)cc3)=C2)cc1OC	-1%
CN(C)Cc1cnc2ccc(Cl)cn12	7%
COc1cc(C)ccc1OCCOCCOc1c(C)cc(C)cc1Br	4%
Cc1[nH]nc(-c2ccc(O)cc2O)c1-c1ccc(Cl)cc1	-14%
Cc1cc(C)c(S(=O)(=O)NC2CC(C)(C)NC(C)(C)C2)cc1C	14%
COc1ccc(-c2nc(CN3CCN(Cc4cccc(F)c4)CC3)c(C)o2)cc1	9%
CCc1cc2c(=O)c(-c3nc4ccccc4n3C)c(COCC(=O)O)oc2cc1O	14%
CC(=O)N[C@@H](Cc1c[nH]c2ccccc12)C(=O)OCC(=O)Nc1cc(C)on1	5%
Cn1c(=O)c2[nH]c(C3CC4CCC3C4)nc2n(C)c1=O (stereo not drawn)	-15%
O=C(NCc1ccc(F)cc1)C1CCN(c2ncnc3c2nc2n3CCCCC2)CC1	10%
CC(C)NC(=O)c1cc2c(C(F)(F)F)nn(C)c2s1	6%
Cc1ccc(CNC(=O)CCn2cc(-c3ccc(F)cc3)nc2-c2ccncc2)cc1	-8%
O=S(=O)(NCC(c1ccco1)N1CCc2ccccc2C1)c1ccc(Br)cc1 (stereo not drawn)	-7%
Cc1onc(-c2c(Cl)cccc2Cl)c1C(=O)NC(C)(C)CO	3%
COCCN1CC(=O)N2C(c3cccc(OC)c3)c3[nH]c4ccccc4c3C[C@H]2C1=O (stereo partly drawn)	-18%
Cc1ccc2oc(-c3ccc(Cl)c(NC(=O)c4cc5ccccc5o4)c3)nc2c1	-15%
Cc1cc(C)c(-c2cc(NC(=O)CSc3nncn3C)n(-c3ccccc3)n2)cc1C	3%
O=C(CSCc1ccccc1Cl)Nc1ccc(C(=O)O)cc1	9%
O=C1[C@@H]2CSC(c3ccc(F)cc3)N2C(=O)N1c1ccc(Cl)cc1 (stereo partly drawn)	-1%

An excerpt from above in order of molar mass, ascending.
SMILES	VDR inh
O=C(O)Cc1ccc(O)cc1	15%
Cc1ccccc1OCCCN1CCOCC1	5%
Cc1cc(C)c(S(=O)(=O)NC2CC(C)(C)NC(C)(C)C2)cc1C	14%
CCCC(=O)NC(c1ccco1)c1cc([N+](=O)[O-])c2cccnc2c1O (stereo not drawn)	2%
COCCNC(=O)c1sc2ncn(CC(=O)N3CCCCC3)c(=O)c2c1C	-23%

(list continues)
SMILES	VDR inh
Cc1sc2nc(CN3CCN(c4ccc(O)cc4)CC3)[nH]c(=O)c2c1C	-16%
Cc1ccc(-n2ncc3c(N4CCN(c5ccccc5)CC4)ncnc32)cc1C	7%
COc1ccccc1N(CCC#N)C(=O)COC(=O)CCC(=O)c1ccc(F)cc1	6%
O=[N+]([O-])c1cc([N+](=O)[O-])c2cc3ccccc3nc2c1	u
CCn1cc(C2=NC(CCSC)CO2)c2ccccc21 (stereo not drawn)	4%
O=C(Nc1ccc(C(F)(F)F)cc1)c1ccccc1	-7%
CCCn1c(N)c(N(CCOC)C(=O)CSc2c(Cl)cccc2Cl)c(=O)[nH]c1=O	6%
Cc1ccc(CNC(=O)CSc2nnc3c(n2)[nH]c2ccccc23)cc1	-4%
CC(C)c1nn2c(=O)cc(COC(=O)C3CCCCC3)nc2s1	7%
Cc1ccc(/C=N/NC(=O)Cc2ccc(Cl)cc2)s1	21%
O=C(c1ccc([N+](=O)[O-])cc1)N(Cc1ccco1)c1ccccn1	8%
CC[C@@H]1C(c2cccc(C)c2)=NN(c2ccc(Br)cc2)[C@H]1C(=O)N1CCOC1=O	-2%
NC(=O)c1cc2ccccc2o/c1=N/NC(=O)c1cccc(F)c1	8%
CSc1nc(N)nc2c1ncn2CC(=O)NCc1ccc2[nH]ccc2c1	10%
COCCCNC(=S)Nc1ccc(CC(=O)O)cc1	-24%
O=C(Cc1cccs1)NC1CC(=O)N(c2ccc(F)cc2)C1 (stereo not drawn)	1%
CCOC(=O)C1CCN(CCC(=O)Nc2ccccc2Cl)CC1	3%&-7%
Nc1ccc(OC(=O)Nc2ccc(O)cc2)cc1	-3%
O=C1N(Cc2cccc(Cl)c2)C[C@@H]2C[C@@H](c3ccc4nonc4c3)N3CCC[C@@]123	-15%
COc1ccc(C(=O)OCCCOC(=O)c2ccc(OC)cc2OC)c(OC)c1	-13%
Cc1cccc(NC(=O)C2CCN(C(=O)c3ccco3)CC2)c1C	3%
O=C(NN1CCN(Cc2ccccc2)CC1)c1ccc(N2CCOCC2)c([N+](=O)[O-])c1	-13%
COc1cccc(C(=O)NCC(c2ccc3c(c2)OCO3)N2CCN(C)CC2)c1 (stereo not drawn)	2%
COc1ccccc1-c1c(-c2ccc(OCC(=O)NN)cc2O)n[nH]c1C(F)(F)F	-12%
O=C(NCc1cccs1)C(=O)NCC(c1ccco1)N1CCN(c2ccc(F)cc2)CC1 (stereo not drawn)	14%
Cc1c(Nc2nc(-c3ccccc3)cs2)c(=O)n(-c2ccccc2)n1C	-1%
COc1cc(OC)c(S(=O)(=O)Nc2ccc(C(=O)N3CCCC3)cc2)cc1NC(C)=O	3%
N#Cc1ccc(C(=O)OCCc2cc3ccccc3c(=O)o2)cc1	1%
CN(Cc1ccco1)c1ccnc(-c2cccc(C#N)c2)n1	35µM*
Cc1ccc(C(=O)CC(=O)c2ccccc2C)c(O)c1	-5%
Cc1ccc(C(=O)N2CC=C(c3ccccc3)CC2)s1	-15%
COCCCNC(=O)Cc1c(C)c2c(cc(C)c3c(C)c(C)oc32)oc1=O	5%
NC(=O)c1ccsc1NC(=O)COC(=O)c1cccnc1Cl	u
Clc1cc(Br)ccc1OCCOCCN1CCCC1	1%
COc1ccc(CC(=O)Nc2ccc(-c3nc4ccccc4s3)c(C)c2)cc1OC	9%
Cc1ccc(S(=O)(=O)Cc2ccccc2Cl)cc1	-26%
O=C(O)c1cccnc1Cl	-9%
CCc1cccc(C)c1NC(=S)N(CCN(C)C)C(C)c1ccco1 (stereo not drawn)	-14%
CC1(C)CC2/C(CO)=C/C=C/[C@](C)(O)CC[C@]21O (stereo partly drawn)	-3%
O=C(CSc1nc2ccccc2c(=O)n1Cc1ccc(F)cc1)NCC1CCCO1 (stereo not drawn)	-5%
Cc1c(C)c2ccc(OCC(=O)Nc3ccccn3)cc2oc1=O	5%
O=C(NCc1ccccc1)c1cccc(Br)n1	-1%&-10%
CCO[C@@H]1OC(C(=O)NCc2ccccc2)=C[C@H](c2coc3ccccc3c2=O)[C@H]1CCCO	-9%
CCOC(=O)c1[nH]c2ccccc2c1NC(=O)c1ccc(S(=O)(=O)N2CCOCC2)cc1	6%
NC(N)=N/N=C/c1ccc(Cl)c(Cl)c1	-1%
CCN1CCN(c2cc(C)c3cc(NC(=O)/C=C/c4ccc(OCCC(C)C)cc4)ccc3n2)CC1	5%
CCN1CCCc2cc(CN(CCN3CCOCC3)C(=S)Nc3ccccc3C)ccc21	14%
CCOC(=O)C1CCN(C(=O)CCc2nnc3ccc(NCc4ccco4)nn23)CC1	-1%
CC(C)[C@H](NC(=O)Cc1ccccc1)C(=O)OCc1cc(=O)n2c(n1)sc1ccccc12	2%
Cc1cc(NC(=O)CSc2nnnn2-c2ccccc2F)no1	-3%
COc1ccc(C(=O)Nc2ccccc2C(=O)NCC2CCCO2)cc1 (stereo not drawn)	2%
NC(=O)NC(=O)CSc1nnc(-c2ccco2)n1Cc1ccccc1	-5%
Cc1cccc(OCCCC(=O)Nc2ccc(N3CCOCC3)cc2)c1	-2%
Cc1cc(N2CC(=O)N(CCc3ccccc3)C(=O)C2)n2ncnc2n1	2%
CC(C)(C)NC(=O)c1ccc(Sc2ccccc2)c([N+](=O)[O-])c1	8%
COc1ccc(/C=C/C(=O)NCCN2CCOCC2)cc1OC	-26%
Cc1cc(C(=O)NC2CCCc3ccccc32)c(C)o1 (stereo not drawn)	7%
CC(=NNC(=O)CSCC(=O)NN=C(C)c1ccccc1)c1ccccc1	-15%
CC(C)Cn1c(N)c(C(=O)COC(=O)c2cccc(F)c2)c(=O)n(C)c1=O	-1%
CN(C(=O)c1ccc(NC(=O)Cc2ccc(NC(=O)C3CCCN(C(=O)CCc4ccccc4)C3)cc2)cc1)C1CC1 (stereo not drawn)	12%

A different layout for three compounds above:
VDR inh	compound
-5%	NC(=O)NC(=O)CSc1nnc(-c2ccco2)n1Cc1ccccc1
-2%	Cc1cccc(OCCCC(=O)Nc2ccc(N3CCOCC3)cc2)c1
2%	Cc1cc(N2CC(=O)N(CCc3ccccc3)C(=O)C2)n2ncnc2n1

Other results follow.
SMILES	VDR inh
OC(COc1ccccc1)CN1C2=NCCCN2c2ccccc21 (stereo not drawn)	3%
CCc1nc2ccccc2c(C(=O)OCC(=O)NC2CCCC2)c1C	10%
CN(CC(=O)Nc1ccc(S(=O)(=O)N2CCCC2)cc1)Cc1ccc(Cl)c(Cl)c1	-2%
O=C(Nc1nnc(S(=O)(=O)N2CCOCC2)s1)c1ccccc1	-7%
Cc1c(C(=O)N/N=C/c2cccnc2)sc(N)c1C#N	0%
